GLA inh pH 4.5: qHTS Assay for Inhibitors of Human alpha-Galactosidase at pH 4.5; Alpha-galactosidase A (Homo sapiens), P06280; purified enzyme, 4-MU-alpha-Gal fluorescence, pH 4.5; activity change, negative = inhibition, % at 105 µM; 230,000 tested, under 10 active; AID 1467, 2008; inconclusive = small, poorly fitted or top-dose-only inhibition, or a rising curve; inactive = flat fitted curve, though single readings scatter; no compound was filed as active;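 further: 0% = full activity with enzyme and -100% = basal without enzyme; dose as in the result columns while the protocol names 77 µM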
Rango dissoc inh: qHTS Assay for Inhibitors of RanGTP induced Rango (Ran-regulated importin-beta cargo) - Importin beta complex dissociation. AID 540253, 2011. Biochemical FRET Rango-importin beta, RanGTP-induced dissociation. Potency, µM (top dose mostly 46.1 µM), for inactives: at the highest dose activity change, negative = inhibition. 340,000 tested, 0.071% active; active means falling FRET ratio curve, often poorly fitted, with flat reads before Ran was added; inconclusive means other falling curves, or compound fluorescence or quenching; inactive means flat or rising ratio curve;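 further: potency means the concentration at half of the fitted maximal effect; % of control where 0% means no effect; nearly all actives have a fitted effect of over 45% in size; -100% = wells without RanGTP and RCC1; the record marks most hits as doubtful in a second field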
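Quantitative HTS using a FRET biosensor: 0.1 uM Rango, 0.25 uM importin beta, 0.6 uM Ran, 2 mM GTP, 0.2 uM RCC1 final, PBS with DTT, Tween-20 and BSA. Post-read taken 45 min after Ran addition.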
miR-21 FLuc: qHTS Assay for Modulators of miRNAs and/orActivators of miR-21. HeLa miR-21 FLuc reporter, luciferase, 48 h. 340,000 tested, under 10 active. Potency, µM (doses to about 38.3 µM), for inactives: at the highest dose reporter change, positive = more light; active = well fitted rising curve with a large enough effect; inconclusive = small, poorly fitted or top-dose-only effect; inactive = no such curve, though single readings can be large or run the other way;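 further: % of control where 0% means no effect; miR-21 action dims this reporter so a rising signal means less miR-21 action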
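HeLa cells stably expressing CMV-driven firefly luciferase with a downstream miR-21 binding sequence, endogenously expressing miR-21, were treated with titrations (up to about 40uM final) for 48 hours at 37 degree Celsius. Luciferase luminescence was read after lysis.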
Rango-impB inh: qHTS Assay for Inhibitors of Rango (Ran-regulated importin-beta cargo) - Importin beta complex formation | Rango CFP/YFP FRET sensor + importin beta, 45 min | Importin subunit beta-1 (Homo sapiens), Q14974 | Potency, µM (series often up to 92.2 µM), without a hit: top-dose inhibition of complex formation | 340,000 tested, 0.031% active; active = rising FRET ratio curve, often small or poorly fitted; inconclusive = mostly compound fluorescence or quenching in the first reads; inactive = flat curves in all reads;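 further: potency means the concentration at half of the fitted maximal effect; 0% = DMSO wells and 100% = buffer wells lacking importin beta; nearly all actives have a fitted effect of over 15% in size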
Target sequence (Q14974 whole entry, looked up): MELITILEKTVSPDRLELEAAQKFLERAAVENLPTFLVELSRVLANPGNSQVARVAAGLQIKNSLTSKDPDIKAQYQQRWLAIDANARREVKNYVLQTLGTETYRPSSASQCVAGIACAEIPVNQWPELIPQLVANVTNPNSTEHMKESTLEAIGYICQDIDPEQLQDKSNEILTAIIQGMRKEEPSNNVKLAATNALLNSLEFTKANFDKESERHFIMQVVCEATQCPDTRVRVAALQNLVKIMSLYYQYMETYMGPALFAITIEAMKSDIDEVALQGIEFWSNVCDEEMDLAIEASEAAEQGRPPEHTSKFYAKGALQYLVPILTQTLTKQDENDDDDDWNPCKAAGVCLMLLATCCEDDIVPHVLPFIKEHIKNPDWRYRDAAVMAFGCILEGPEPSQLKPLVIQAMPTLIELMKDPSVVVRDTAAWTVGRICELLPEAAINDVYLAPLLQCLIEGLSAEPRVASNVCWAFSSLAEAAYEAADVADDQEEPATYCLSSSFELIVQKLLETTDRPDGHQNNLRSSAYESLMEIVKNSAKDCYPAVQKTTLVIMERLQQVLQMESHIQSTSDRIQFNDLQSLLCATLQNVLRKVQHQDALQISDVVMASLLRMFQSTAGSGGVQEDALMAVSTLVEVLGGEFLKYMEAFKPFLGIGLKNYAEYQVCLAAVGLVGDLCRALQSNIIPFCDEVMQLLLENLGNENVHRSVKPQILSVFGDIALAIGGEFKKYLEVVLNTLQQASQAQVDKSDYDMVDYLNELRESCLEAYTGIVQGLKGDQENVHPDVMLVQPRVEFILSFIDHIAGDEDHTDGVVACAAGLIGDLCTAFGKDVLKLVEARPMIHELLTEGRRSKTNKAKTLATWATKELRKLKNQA
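FRET biosensor (snurportin 1 IBB flanked by EYFP and cerulean), 50 nM, with compound 5 min, then 0.125 microM importin beta in PBS, 1 mM DTT, 0.02% Tween-20, 0.1% BSA. CFP/YFP ratio read after 45 min at room temperature; pre-read flags interference.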
* marks the source's active call; other numbers are inactive results; ? = inconclusive; . = not tested or not shown; [ ] = another dose, or the depositor's remark. Only part of the results is shown; rates above refer to the full screens.

Rango-impB inh,miR-21 FLuc,Rango dissoc inh,GLA inh pH 4.5,smiles
4.6%,.,-11.0%,.,CC1CCCCC12NC(=O)N(CC(=O)NCc1ccccc1)C2=O (stereo unspecified)
?,.,-7.6%,.,COc1ccccc1CCNC(=O)c1cccc(NC(=O)CC2SC(N3CCCCC3)=NC2=O)c1 (stereo unspecified)
0.5%,-1.7%,-0.6%,-11.1,CCn1c(SCC(=O)Nc2nc3ccccc3s2)nnc1-c1ccc(OC)cc1
0.9%,0.5%,-1.1%,3.1,CCOC(=O)c1sc2nc(C)nc(N3CCN(c4ncccn4)CC3)c2c1C
7.3%,6.8%,3.6%,?,COc1ccc2cc(C#N)c(NC(C)C)nc2c1
-0.3%,-10.1%,-0.7%,-1.8,Cc1ccc(-c2nnn(CC(=O)N(CC(=O)NCC3CCCO3)c3ccc(F)c(Cl)c3)n2)o1 (stereo unspecified)
1.7%,10.0%,0.9%,1.5,Cc1ccc(-n2c(Cc3cccs3)nnc2SCC(=O)Nc2ccc(S(N)(=O)=O)cc2)cc1
-0.4%,-6.6%,-11.2%,0.7,O=C(Nc1nncs1)c1ccc(Br)c(S(=O)(=O)N2CCCC2)c1
1.8%,1.6%,-4.9%,5.1,CN(C(=O)COC(=O)c1cc(S(=O)(=O)N2CCCCC2)ccc1N1CCOCC1)C1CCS(=O)(=O)C1 (stereo unspecified)
-2.4%,.,-13.9%,.,CC(C)CCC[C@@H](C)[C@H]1CC[C@H]2[C@@H]3C(=O)C=C4C[C@@H](O)CC[C@]4(C)[C@H]3CC[C@]12C
-0.9%,-8.4%,10.8%,.,O=C(c1c(Cl)cccc1Cl)N1CCN(c2ncccn2)CC1
3.8%,?,4.3%,0.5,CCOC(=O)C(=Cc1ccc(Br)cc1)C(=O)OCC
-1.5%,-24.0%,6.9%,-1.3,CCOc1ccc(NC(=O)C(=S)NC2CCCCC2)cc1
-1.5%,1.0%,-5.0%,-2.1,Cn1c(=O)cc(Cl)[nH]c1=O
-0.9%,11.8%,-1.3%,6.6,COc1cc(CCC(=O)Nc2ccc(C)c(S(=O)(=O)N(C)C)c2)cc(OC)c1OC
0.6%,-11.8%,-16.5%,2.4,Cc1cc(C)cc(N2C(=O)CC(Cn3nc(C)cc3C)C2=O)c1 (stereo unspecified)
-0.9%,12.0%,-5.7%,.,CC(=C\c1ccccc1)/C=C1/SC(=S)N(CCCC(=O)O)C1=O
3.0%,.,-3.7%,.,COc1ccc(N(C)S(=O)(=O)c2cccc(C(=O)NCC(c3ccco3)N3CCCC3)c2)cc1 (stereo unspecified)
2.2%,.,6.2%,.,Cc1ccc(NC(=O)CN(C)CC(=O)N(CC(C)C)c2c(N)n(CC(C)C)c(=O)[nH]c2=O)c(C)c1
0.1%,0.2%,-8.9%,4.9,CCOC(=O)C1(Cc2cccc(OC)c2)CCN(CCO)CC1
2.3%,-3.2%,12.3%,9.3,Cc1onc(-c2c(F)cccc2Cl)c1C(N)=S
0.2%,0.8%,4.6%,-2.5,COc1ccc(-c2noc(CN(C)CCC3CCCCO3)n2)cc1 (stereo unspecified)
0.4%,0.8%,-12.1%,-25.3,Oc1ccc(/C=N/N2CCN(C3c4ccccc4-c4ccccc43)CC2)cc1
-2.1%,1.4%,-3.8%,-14.4,CCN(CC)S(=O)(=O)c1cc(NC(=O)C(C)N2CCN(c3ccccn3)CC2)ccc1C (stereo unspecified)
0.1%,.,5.2%,.,Cc1cc(Cl)ccc1OCCCC(=O)Nc1cc(S(=O)(=O)N2CCOCC2)ccc1N1CCOCC1
-3.8%,-0.4%,-2.0%,-8.4,COc1ccc(NC(=O)C2CCCN(S(=O)(=O)c3cnc[nH]3)C2)cc1 (stereo unspecified)
2.9%,.,11.7%,.,CN(CC(=O)Nc1ccccc1Cl)C(=O)c1ccccc1SCC(=O)N1CCCC1
?,-23.0%,?,4.1,COc1ccc(-c2cc(C(=O)Nc3ccc(C(N)=O)cc3)c3ccccc3n2)cc1OC
0.2%,13.4%,-0.1%,.,COc1ccc(COC(=O)C2=C(C)NC(=O)NC2c2cccc(Br)c2)cc1 (stereo unspecified)
-1.8%,.,-6.2%,.,CCn1c2ccccc2c2cc(C#N)c(N)nc21

(more compounds)
Rango-impB inh,miR-21 FLuc,Rango dissoc inh,GLA inh pH 4.5,smiles
0.3%,.,16.1%,.,C[C@@]12CC[C@H]3OC(=O)C=C3C1CC[C@@]13CC(CCC12)[C@](CO)(O[C@H]1O[C@H](CO)[C@@H](O)[C@H](O)[C@H]1O)C3 (stereo partly specified)
2.3%,2.1%,-8.6%,-3.7,COc1cc(/C=C(\C#N)c2nn(CCO)c(N)c2C#N)cc(OC)c1OC
1.3%,-1.1%,0.0%,2.5,COc1ccc(CC(=O)Nc2ccc(S(=O)(=O)NC(C)C)cc2)cc1
1.8%,.,10.2%,.,COc1cccc(C(=O)OCC(=O)NCc2ccc3c(c2)OCO3)c1OC
3.3%,-7.8%,15.5%,7.0,COc1ccc(/C=N/n2c(=O)[nH]c3c([nH]c4ccc(C)cc43)c2=O)cc1CN1CCOCC1
0.3%,-21.4%,-5.1%,3.6,O=C(Nc1ccc2c(c1)OCO2)c1cc2n(n1)C(C(F)(F)F)CC(c1ccccc1)N2 (stereo unspecified)
4.2%,-6.0%,8.8%,-1.0,C=CCn1c(SCC(=O)Nc2cc(NC(C)=O)ccc2OC)nnc1-c1ccccn1
4.6%,.,4.2%,.,CCCCn1c(N)c(N(CCC(C)C)C(=O)C2CC(=O)N(c3ccc(OC)cc3OC)C2)c(=O)[nH]c1=O (stereo unspecified)
-0.7%,-75.7%,-1.5%,.,Cc1ccc(C(=O)Cc2cc3ccccc3oc2=O)c(C)c1
1.7%,-0.9%,20.6%,0.3,CCO[C@H]1OC(C(=O)N2CCOCC2)=C[C@@H](c2ccccc2)[C@@H]1CCCO
-0.9%,.,26.7%,.,Cc1ccc(S(=O)(=O)Nc2ccccc2F)cc1C(=O)NCc1ccco1
-5.5%,15.8%,10.2%,.,CC(=O)N1c2ccc(S(=O)(=O)N3CCC(C(=O)Nc4ccccn4)CC3)cc2CC1C (stereo unspecified)
-0.5%,-17.3%,3.8%,.,Cc1cccc(OCC(=O)Nc2ccc(NC(=O)c3ccco3)cc2)c1
0.0%,-0.3%,7.5%,2.3,CCOC(=O)CCC(=O)N1CCNC(=O)C1
5.9%,-4.7%,-21.5%,-5.8,CCn1cc(C2=NOC(C(=O)Nc3cc(C)nn3-c3ccccc3)C2)c(C)n1 (stereo unspecified)
?,-60.2%,-1.4%,0.8,O=C(O)c1cc(N/N=C/C(Cl)=C/c2ccccc2)ccc1Cl
-4.9%,.,-18.4%,.,CN(C(=O)COC(=O)c1ccc(Br)o1)c1c(N)n(Cc2ccccc2)c(=O)[nH]c1=O
-5.3%,5.5%,2.3%,1.5,CC(=O)Nc1ccc(S(=O)(=O)N2CCN(CCN3CCOCC3)CC2)cc1Cl
-4.7%,-8.0%,-7.9%,.,CCOC(=O)c1c(C)[nH]c(C)c1S(=O)(=O)NCCc1cccs1
5.2%,-1.0%,-4.5%,3.7,O=C(O)c1nn2cc(CCO)cnc2c1Cl
0.2%,-1.8%,1.2%,5.1,CS(=O)(=O)c1ccc(Cl)c(NC(=O)COC(=O)CNC(=O)c2ccccc2)c1
-3.4%,-4.4%,-5.7%,-0.9,CCCCNC(=O)c1cccc2c(=O)c(C)c(-c3ccccc3)oc12
2.2%,-2.7%,28.1%,-9.9,CC(Sc1nnc(-c2ccccc2)c(-c2ccccc2)n1)C(=O)Nc1ncc(Cl)cc1Cl (stereo unspecified)
-0.3%,-5.0%,-13.4%,-3.7,O=C(CSc1ccc(F)cc1)N1CCN(S(=O)(=O)c2ccccc2)CC1
3.0%,-18.5%,2.2%,.,CC/C(=N\NC(=O)c1ccc2c(c1)OCO2)c1ccccc1
4.8%,-9.2%,-10.2%,0.5,CCCOc1ccc(N2C(=O)CC(N(Cc3ccc(OC)cc3)C(=S)Nc3ccccc3)C2=O)cc1 (stereo unspecified)
0.6%,0.4%,3.5%,-11.0,Cc1c(N=Cc2cccnc2)c(=O)n(-c2ccccc2)n1C
-1.6%,5.2%,9.5%,-4.6,Cc1cc(C)[n+](-c2ccc(Oc3ccccc3)c(S(=O)(=O)[O-])c2)[nH]1
?,18.2%,?,-12.3,C/C(=N/NC(=O)c1cccs1)c1c(C)[nH]n(-c2nc3ccccc3s2)c1=O
1.3%,1.6%,4.0%,.,COC1OC(COC(=O)c2ccccc2)C(OC(=O)c2ccccc2)C1OC(=O)c1ccccc1 (stereo unspecified)

Some of the entries so far, with bars between the fields.
smiles | Rango-impB inh | miR-21 FLuc | Rango dissoc inh | GLA inh pH 4.5
COc1cccc(C(=O)OCC(=O)NCc2ccc3c(c2)OCO3)c1OC | 1.8% | . | 10.2% | .
COc1ccc(/C=N/n2c(=O)[nH]c3c([nH]c4ccc(C)cc43)c2=O)cc1CN1CCOCC1 | 3.3% | -7.8% | 15.5% | 7.0
O=C(Nc1ccc2c(c1)OCO2)c1cc2n(n1)C(C(F)(F)F)CC(c1ccccc1)N2 (stereo unspecified) | 0.3% | -21.4% | -5.1% | 3.6
C=CCn1c(SCC(=O)Nc2cc(NC(C)=O)ccc2OC)nnc1-c1ccccn1 | 4.2% | -6.0% | 8.8% | -1.0
CCCCn1c(N)c(N(CCC(C)C)C(=O)C2CC(=O)N(c3ccc(OC)cc3OC)C2)c(=O)[nH]c1=O (stereo unspecified) | 4.6% | . | 4.2% | .
Cc1ccc(C(=O)Cc2cc3ccccc3oc2=O)c(C)c1 | -0.7% | -75.7% | -1.5% | .

Going on with the list:
Rango-impB inh,miR-21 FLuc,Rango dissoc inh,GLA inh pH 4.5,smiles
0.4%,-6.3%,18.3%,2.4,COc1ccc(C(=O)OCC(=O)Nc2ccc(F)cc2F)cc1OC
4.2%,-45.6%,-3.2%,-3.2,OC(COc1ccc2cc(Br)ccc2c1)CN1CCCC1 (stereo unspecified)
0.4%,-12.2%,-8.5%,1.8,O=C(COc1ccccc1O)Nc1ccc(Cl)cc1
0.2%,4.7%,1.2%,2.2,CNc1nc2c(c(=O)n(C)c(=O)n2C)n1Cc1ccccc1
-1.2%,-3.6%,-7.0%,.,COc1ccc2[nH]c3c(=O)n(N)c(=O)[nH]c3c2c1
1.7%,.,-2.9%,.,COc1cc(C(=O)N2CCN(S(=O)(=O)c3ccc(C(C)C)cc3)CC2)ccc1OCC(=O)N1CCOCC1
-0.8%,0.0%,17.4%,-1.3[21.1 µM],Cc1ccc(C(=O)N2C3=C(CCCC3)C(=O)NC23CCCCC3)cc1
0.5%,4.7%,2.3%,.,COC(=O)c1ccccc1NCC(=O)c1ccc(OC)cc1
-3.2%,5.2%,-9.4%,2.7,CC(O)c1nc2ccccc2n1CC(=O)N1CCN(c2ccccc2)CC1 (stereo unspecified)
2.1%,.,-16.1%,.,O=C(CN1C(=O)NC2(CCCC2)C1=O)OCc1ccccc1
-0.7%,2.2%,-20.8%,12.0,Cc1ccc(S(=O)(=O)Nc2nc(C)cc(NN)n2)cc1
0.5%,-1.6%,-4.4%,2.1,C=CCNC(=O)C1CCN(S(=O)(=O)CC)CC1
1.5%,6.2%,5.2%,.,CCn1c(N2CCN(C(=O)c3ccco3)CC2)nc2ccccc21
8.4%,0.0%,-9.2%,0.6,COc1ccccc1Oc1ccc(S(=O)(=O)N2CCN(C)CC2)cc1

Limited to miR-21 FLuc, GLA inh pH 4.5 and Rango dissoc inh, for two of the compounds above:
Molecule	miR-21 FLuc	GLA inh pH 4.5	Rango dissoc inh
Cc1ccc(C(=O)N2C3=C(CCCC3)C(=O)NC23CCCCC3)cc1	0.0%	-1.3[21.1 µM]	17.4%
COC(=O)c1ccccc1NCC(=O)c1ccc(OC)cc1	4.7%	.	2.3%

Bioassay records: PubChem BioAssay, National Center for Advancing Translational Sciences (NCATS)
